Source: PubChem BioAssay
NS1 function inh: influenza NS1 inhibition; S. cerevisiae slowed by influenza A NS1, growth recovery by OD600; Potency, µM (highest dose often 46.1 µM), for inactives: top-dose activity, positive = more growth; hit rate 0.4% among 270,000; active means well fitted rising curve with a large enough effect; inconclusive means small, poorly fitted or top-dose-only effect; inactive means no such curve, though single readings can be large or run the other way; note: nearly all actives have a fitted effect of over 50% in size
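Read-out: OD600 growth recovery of NS1-expressing budding yeast. Cells grown overnight at 30C in -URA glucose medium, washed, resuspended and diluted 1:100 in 2% galactose assay medium, pH 6.0. Same strain lacking NS1 served as positive control.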
SARS PLP yeast: blocks SARS-CoV papain-like protease in a yeast assay; hit rate 0.19% among 330,000; S. cerevisiae expressing SARS-CoV PLpro, growth rescue; control for the full effect not named in the record; Potency, µM (titrated, usually from 32.9 µM), without a hit: at the top dose activity, positive = growth rescue; active means well fitted rising curve with a large enough effect; inconclusive means small, poorly fitted or top-dose-only effect; inactive means no such curve, though single readings can be large or run the other way; note: 0% is about no effect; nearly all actives have a fitted effect of over 55% in size; growth read by luminescence after 48 h
Lassa entry inh: blocks Lassa virus binding to or entry into cells | hit rate 1.2% among 300,000 | Lassa virus pseudotype entry inhibition, cell reporter; control for the full effect not named in the record | Potency, µM (titrated, usually from 37.9 µM), without a hit: at the top dose activity change, negative = inhibition, hits mostly inhibitors; active means well fitted inhibition curve with a large enough effect; inconclusive means small, poorly fitted or top-dose-only effect, or effect the other way; inactive means flat fitted curve, though single readings scatter; tested in HEK293 cells; note: % is set by controls: 0 for no effect and ±100 for the full control effect; nearly all actives have a fitted effect of over 50% in size; luciferase read-out
Cruzain Triton: blocks cruzain activity in presence of Triton detergent | Potency, µM, for the others: max response, negative = inhibition, most hits filed as inhibitors | purified cruzain, Z-FR-AMC fluorescence, 0.01% Triton | hit rate 0.43% among 200,000;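 note: plate controls were neutral wells for no effect and buffer without enzyme for full effect; nearly all actives have a fitted effect of over 40% in size; top concentration of the series not given in the record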
Target sequence (P25779 123-467 limits assumed): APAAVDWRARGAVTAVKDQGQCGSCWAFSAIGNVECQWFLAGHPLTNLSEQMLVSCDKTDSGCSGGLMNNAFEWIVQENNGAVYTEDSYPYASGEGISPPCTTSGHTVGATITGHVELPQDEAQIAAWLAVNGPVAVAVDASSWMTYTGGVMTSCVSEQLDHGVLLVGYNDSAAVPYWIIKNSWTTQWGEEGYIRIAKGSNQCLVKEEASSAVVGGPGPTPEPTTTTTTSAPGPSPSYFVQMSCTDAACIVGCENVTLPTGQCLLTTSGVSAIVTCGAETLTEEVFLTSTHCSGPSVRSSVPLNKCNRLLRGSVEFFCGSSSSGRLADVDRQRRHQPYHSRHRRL
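Read-out: AMC fluorescence (360 nm excitation, 450 nm emission), four reads over 2 min, first-to-third difference used. Conditions: cruzain 1.5 nM, Z-FR-AMC 2 uM, pH 5.5 acetate, 5 mM DTT, 0.01% Triton X-100.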
RE007 growth inh: less growth of the S. pombe RE007 Vpr strain. S. pombe RE007 Vpr strain, BacTiter-Glo ATP luminescence, 24 h; control for the full effect not named in the record. AID 651644. Potency, µM (highest dose often 92.2 µM), for inactives: at the highest dose activity change, negative = less growth. hit rate 0.21% among 360,000; active = well fitted falling curve with a large enough effect; inconclusive = small, poorly fitted or top-dose-only effect; inactive = no such curve, though single readings can be large or run the other way;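 note: % is set by controls: 0 for no effect and ±100 for the full control effect; nearly all actives have a fitted effect of over 50% in size; the assay follows cell death caused by Vpr and the record does not say whether a fall means rescue or toxicity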
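Fission yeast strain RE007, carrying one chromosomally integrated HIV-1 vpr copy, was seeded at OD 0.01 in PMG+AL medium with 23 nL pinned compound. After 24 h at 30 °C and 99% humidity, viability was read by BacTiter-Glo luminescence.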
Cruzain inh noDet: blocks cruzain activity in detergent-free assay. Potency, µM, for the others: max response, negative = inhibition, hits mostly inhibitors. P25779. purified cruzain, Z-FR-AMC fluorescence, no detergent. hit rate 2.3% among 200,000;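 note: plate controls were enzyme without inhibitor for no effect and buffer without enzyme for full effect; nearly all actives have a fitted effect of over 40% in size; top concentration of the series not given in the record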
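Purified cruzain at 1.5 nM, pre-incubated 15 min with compound at room temperature in 100 mM sodium acetate pH 5.5, 5 mM DTT, 0.00005% Triton X-100. Reaction started with 2 uM Z-FR-AMC; AMC fluorescence increase over 60 s gives rate.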
MARV entry inh: blocks Marburg virus binding to or entry into cells; Marburg virus pseudotyped entry inhibition, cell reporter; control for the full effect not named in the record; about a third of the inactives were read at about 46 µM; Potency, µM (series often up to 37.8 µM), inactives show top-dose activity change, negative = inhibition, actives largely listed as inhibitors; hit rate 1.8% among 300,000; AID 540276; active = well fitted inhibition curve with a large enough effect; inconclusive = small, poorly fitted or top-dose-only effect, or effect the other way; inactive = flat fitted curve, though single readings scatter; tested in HEK293 cells; about a fifth of its hits are not listed in these tables; note: % is set by controls: 0 for no effect and ±100 for the full control effect; luciferase read-out
StopGo reporter: FMDV 2A StopGo reporter, luciferase signal; human cells with a luciferase reporter of 2A StopGo recoding; control for the full effect not named in the record; Potency, µM (titrated, usually from 57.9 µM), for the others: top-dose signal change, negative = less light; hit rate 1.2% among 410,000; active = well fitted falling curve with a large enough effect; inconclusive = small, poorly fitted or top-dose-only effect; inactive = no such curve, though single readings can be large or run the other way; tested in HEK293T cells; note: % is set by controls: 0 for no effect and ±100 for the full control effect; nearly all actives have a fitted effect of over 45% in size; luciferase light after 4 h
The depositor's hits bear a star; ? = inconclusive; . = not tested or not shown; & = joins results of further samples; [ ] = another dose, or the depositor's remark. Unless noted, calls come from the whole dose curve; as a rule, active = well fitted curve in the direction sought with a large enough effect; inconclusive = small, poorly fitted or top-dose-only effect, or another doubt; inactive = no such curve, though single readings can be large; an effect the other way counts as inactive or inconclusive. Potency is the fitted concentration of half-maximal effect.

SMILES	NS1 function inh	SARS PLP yeast	Lassa entry inh	Cruzain Triton	RE007 growth inh	Cruzain inh noDet	MARV entry inh	StopGo reporter
COc1ccc(N(CC(=O)Nc2ccc(Cl)cc2C)S(=O)(=O)c2ccccc2)c(OC)c1	.	.	?	-2.5%	.	-17.7%	?	-10.4%
Cc1cc(C)nc(NS(=O)(=O)c2ccc(NC(=O)NC3CCCCC3)cc2)n1	-3.0%	1.2%	-4.5%	-4.3%	2.7%	3.2%	0.1%	91.2%[activator]
O=C(NCCc1ccccc1)C(=O)NCC1CCCN1S(=O)(=O)c1ccccc1 (stereo unspecified)	.	0.9%	?	.	-24.1%	.	11.2µM*	-19.4%
COC(=O)c1cc(OC)c(OC)cc1NC(=O)CN1C(=O)c2ccccc2C1=O	4.7%	-1.0%	-0.5%	2.1%	-0.7%	?	-12.5%	-14.9%
CC(C)(C)n1nnnc1C(c1cccnc1)N1CCN(c2ccccc2F)CC1 (stereo unspecified)	12.8%	-1.3%	3.2%	0.3%	-4.0%	-5.0%	12.2%	-15.3%
COc1ccc(-n2nc(C(=O)NCC(=O)N3CCC(C(N)=O)CC3)c3ccccc3c2=O)cc1OC	0.2%	-0.4%	7.5%	.	8.9%	.	-11.3%	-6.6%
COc1cccc2c(C)nc(Nc3nc(CSc4nnc(C)s4)cc(=O)[nH]3)nc12	-28.4%	-1.9%	-11.9%	-5.7%	12.1%	?	-5.4%	-15.3%
C/C(N)=C(/C#N)C(=O)CSc1nc2ccccc2c(=O)n1-c1ccccc1C	-3.3%	-10.4%	-3.0%	-8.5%	1.3%	2.3%	-33.1%	3.4%
CC(=O)OCc1c(-c2ccccc2)c2cc([N+](=O)[O-])ccc2n1C	-6.1%	-2.9%	19.0%[46.1 µM]	.	10.5%	.	-28.0%[46.1 µM]	-25.6%
CC(=O)NC12CC3CC(C1)CC(C(=O)Nc1cccc(S(=O)(=O)N4CCCCCC4)c1)(C3)C2	.	.	-13.5%	.	2.1%	.	?	-26.1%
CC(C(=O)NCc1ccc(F)cc1)c1ccc([N+](=O)[O-])cc1 (stereo unspecified)	3.8%	-2.0%	.	.	0.5%	.	.	-2.2%
CC(=O)c1cccc(NC(=O)c2ccccc2OCc2ccc(F)cc2)c1	-4.5%	-1.9%	-5.2%[46.1 µM]	.	-11.4%	.	?	-9.9%
COc1ccc(NC(=S)NC(C)c2ccncc2)cc1OC (stereo unspecified)	-0.4%	-0.8%	12.1%[46.1 µM]	.	-25.4%	.	17.0%[46.1 µM]	19.3%
CC(C(=O)NCc1ccco1)n1cc(C(=O)c2ccco2)c2ccccc21 (stereo unspecified)	-0.1%	4.4%	-0.4%	0.0%	1.0%	-4.4%	-2.6%	4.7%
O=C(Nc1ccc(Cl)cc1F)C1CCCN(C2=NS(=O)(=O)c3ccccc32)C1 (stereo unspecified)	.	3.6%	-8.0%	.	1.8%	.	-2.4%	?
CCCCNC(=O)c1cc(S(=O)(=O)N2CCCCC2)oc1C	2.2%	1.9%	.	.	8.1%	.	.	0.0%
Cc1cccc(NC(=O)CCNS(=O)(=O)c2cccc3nonc23)c1	.	-2.9%	13.0%&-5.9%[46.1 µM]	-1.9%	3.6%	-3.1%	-16.1%&13.0%[46.1 µM]	41.8%&13.6%[activator]
COc1cc(-c2nn3c(COc4ccccc4)nnc3s2)cc(OC)c1OC	-4.5%	-0.3%	?	1.2%	-10.6%	-21.7%	-6.7%&-6.7%	-23.8%
O=C(NC1CC2CCCC(C1)N2C(=O)Nc1ccccc1)c1ccncc1 (stereo unspecified)	3.9%	-1.8%	21.0%	3.0%	-10.1%	-6.4%	0.6%	-18.4%
COc1cc(CN2CCC(C(=O)N3CCN(c4ccccc4F)CC3)CC2)cc(OC)c1OC	4.8%	0.5%	-4.3%	10.5%	0.5%	8.0%	8.5%	7.6%
Cc1ccccc1CCNC(=O)c1ccc(Cn2c(=O)c3cccn3c3cccnc32)cc1	.	.	-23.5%[46.1 µM]	-1.8%	.	-0.7%	.	-27.5%
Cc1ccc(Cl)cc1NC(=O)Cn1c(SCC(=O)NCc2ccccc2)nc2ccccc21	.	.	?	-1.1%	.	-2.7%	.	-19.3%
COc1ccc(CN2CCCC(C(=O)c3cccc(Cl)c3)C2)cc1 (stereo unspecified)	-7.0%	-5.0%	.	.	-18.7%	.	.	-19.2%
CCS(=O)(=O)N1CCCC(C(=O)NCCCOC(C)C)C1 (stereo unspecified)	2.4%	5.8%	-22.1%	9.8%	17.5%	-2.0%	-2.0%	2.9%
CCn1ccc(C(=O)Nc2sc3c(c2C(=O)OC)CCC3)n1	-17.6%	-8.8%	.	.	-10.2%	.	.	22.0%
O=C(NCCc1ccccc1)c1ccc2nc(N3CCCCC3)sc2c1	.	.	13.6%[46.1 µM]	-2.1%	.	6.1%	?	26.3%
Cc1ccccc1CSc1nccn1-c1ccccc1	-29.3%	-2.5%	?	-2.0%	2.4%	3.0%	-6.1%	-26.0%
CCOC(=O)c1cc2sc(C)cc2n1CC(=O)NCCc1ccccc1	-0.4%	1.3%	?	4.0%	7.4%	23.9%	1.8%	.
Cc1ccc(C)c(OCC(=O)O/N=C(\N)c2ccccn2)c1	-15.4%	4.3%	?	-0.7%	-9.9%	-1.3%	?	51.4%[activator]
CCOc1ccccc1Nc1ccc(C(=O)O)cc1N	-7.4%	-3.2%	-0.8%[46.1 µM]	.	-23.3%	.	-1.6%[46.1 µM]	6.2%
O=C(c1ccc(F)cc1)N1CCC(C(=O)N2CCN(Cc3ccc4c(c3)OCO4)CC2)CC1	.	-1.5%	8.0%	.	0.7%	.	-1.9%	-24.1%
CCc1ccc(NC(=O)c2cnn(-c3ccccc3)c2C2CCNCC2)cc1	.	-4.5%	1.2%	.	11.3%	.	-16.6%&-16.6%	-20.4%
O=c1ccsc2ccccc12	.	.	8.6%	.	17.3%	.	17.2%	13.6%
Cc1ccc(N(CC(=O)NCCSc2nc3ccccc3s2)S(=O)(=O)c2ccccc2)c(C)c1	10.4%	0.0%	?	-3.0%	2.2%	-5.5%	?	-5.6%
CCCC(=O)Nc1cc2nn(-c3ccccc3)nc2cc1C	.	.	?	-0.2%	.	20.9%	.	48.8%[activator]
Cn1cc(Br)c(C(=O)NN2C(=O)C3C4C=CC(C5CC45)C3C2=O)n1 (stereo unspecified)	4.8%	0.6%	.	.	-6.4%	.	.	-16.6%
N/C(=N\OC(=O)c1cccc(Br)c1)c1ccccc1	-4.1%	0.4%	6.3%	-2.4%	-14.8%	-9.1%	?	16.3%
CNS(=O)(=O)c1ccc(N=Cc2c(O)n(-c3ccccc3)c(=O)[nH]c2=O)cc1	.	13.1%	?	.	12.4%	.	?	-2.4%
CN1C(=O)NC(c2ccc(C(F)(F)F)cc2)C2=C1CC(C)(C)CC2=O (stereo unspecified)	0.6%	1.0%	.	.	0.4%	.	.	0.1%
CCn1ncc(NC(=S)NCCc2ccc(OC)c(OC)c2)c1C(N)=O	6.3%	-0.6%	10.8%	.	25.3%	.	22.2%[14.2 µM]	-5.1%
CC(CCc1ccccc1)NC(=O)C(Cc1ccccc1)NC(N)=O (stereo unspecified)	6.9%	-0.3%	-0.2%	.	2.2%	.	1.4%[46.1 µM]	-9.6%
CCC(C)NC(=O)c1ccc(N2CC3CC(C2)c2cccc(=O)n2C3)c(NC(=O)c2ccc(Br)o2)c1 (stereo unspecified)	14.4%	-4.5%	.	.	-4.0%	.	.	-2.1%
COC(=O)c1cc2sc(C)cc2n1CC(=O)Nc1ccc(C)c(C)c1	.	.	.	-1.7%	.	-2.9%	?	0.1%
CCOC(=O)C1CCCN(S(=O)(=O)c2ccc3c(c2)CC(C)N3C(=O)C2CC2)C1 (stereo unspecified)	-7.8%	-3.3%	?	.	-9.1%	.	-25.2%[46.1 µM]	-16.2%
O=C(Oc1ccccc1)Oc1ccc2c(c1)oc(=O)c1ccccc12	-34.0%	-6.3%	2.4%	-3.3%	-28.0%	-11.9%	?	0.0%
O=C1CC(NS(=O)(=O)c2cc(F)ccc2F)CN1c1cccc(F)c1 (stereo unspecified)	.	1.1%	-0.2%	.	1.2%	.	1.6%[46.1 µM]	-18.4%
COC(=O)C1CCN(C(c2cccs2)c2sc3nc(C)nn3c2O)CC1 (stereo unspecified)	-10.0%	1.3%	.	-13.8%	-2.9%	5.2%	.	-14.0%
CCCC(=O)Nc1ccc(C(=O)Nc2ccc([N+](=O)[O-])cc2OC)cc1	2.8%	-0.3%	?	.	1.8%	.	11.4%[46.1 µM]	-20.5%
Cc1[nH]c2ccccc2c1SCCNC(=O)c1ccc(S(=O)(=O)N2CCCC2)cc1	15.5%	9.2%	4.0%	-2.8%	0.6%	5.9%	-24.3%	?
O=C(c1cnc(N2CCCCC2)c2ccccc12)N1CCN(c2cccc(Cl)c2)CC1	.	.	?	-22.6%	.	-4.8%	.	-25.4%
CC/C(=C\C(=O)c1ccncc1)Nc1ccc(Br)cc1	-46.8%	-25.0%	-13.6%	-7.8%	3.9%	-8.2%	-7.5%	-17.2%
Cc1ccc(CSc2ccc3nnc(CCNS(=O)(=O)c4ccc(C)cc4)n3n2)cc1	.	.	?	-7.0%	.	?	.	13.2%
CCN1CCN(S(=O)(=O)c2cc(OC)c(Cl)cc2OC)CC1	8.2%	-1.4%	-14.1%	0.5%	-6.1%	6.6%	7.3%	.
O=[N+]([O-])c1ccc(Cl)c(S(=O)(=O)Nc2cccc(-c3ccc(N4CCCC4)nn3)c2)c1	.	1.7%	4.7%	.	-14.3%	.	-1.2%	37.4%[activator]
Cc1ccc(-n2ccnc(NCCc3ccc(S(N)(=O)=O)cc3)c2=O)c(C)c1	.	.	-11.9%[46.1 µM]	-23.4%	.	-12.7%	.	0.0%
NS(=O)(=O)c1ccc(N=NN2CCCCC2)cc1	0.0%	-0.6%	0.4%	.	-14.6%	.	-18.7%[46.1 µM]	22.0%

Rows are unselected; any-hit rate near 4.7%.
